# PrP 5UTR inh: suppresses PrP 5' UTR mRNA reporter expression; cell-based PrP 5' UTR mRNA reporter, plate reader; inhibition, % (concentration not given with the values); 340,000 tested, 0.35% active; AID 488862;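 active = every replicate at 50% or more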;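 also: 0 = median of the neutral control wells; tested in H4 reporter cells; numbers are from one replicate; inactives centre near -14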
# Bead autofluor: compound fluorescence in toxin protease inhibitor counterscreen; 360,000 tested, 3.1% active; fluorescence intensity (no concentration beside the values); compound autofluorescence counterscreen, microsphere flow cytometry; stronger effect = higher value;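 active = at least 3 SD above the mean of all compounds, about 16000 in these data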;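 also: 100 nL of 1 mM stock went into each well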
# * hit, by the source's call. Only part of the results is shown. The share of hits here may be higher or lower than overall.
SMILES	PrP 5UTR inh	Bead autofluor
C#CCOCCOCCOCCNc1nc(N2CCN(C(=O)CCCCCCCCCCNC(=O)Cn3cc(CCCCCN)nn3)CC2)nc(N2CCN(C(=O)CCCCCCCCCCNC(=O)[C@@H]([C@H](C)O)n3cc(C)nn3)CC2)n1	-33	4732
CCOC(=O)C1=C(c2ccccc2)c2ccc(OC)cc2N(S(=O)(=O)C(F)(F)F)C1C(=O)OCC (centres undefined)	-14	3441
COc1ccc(NC(=O)N(C)C[C@@H]2Oc3ccc(NC(=O)NC(C)C)cc3CC(=O)N([C@H](C)CO)C[C@@H]2C)cc1	-4	3822
Cc1ccc(S(=O)(=O)NCCCNC(=O)OCc2ccccc2)cc1	-3	4345
O=C(Cc1ccc([N+](=O)[O-])cc1)NCCc1ccc2c(c1)OCO2	-11	5121
O=[N+]([O-])c1ccc(N/N=C/c2sc(N3CCOCC3)nc2-c2ccccc2)c(S(=O)(=O)Nc2ccccc2Cl)c1	-6	6104
C=CC[C@@H](CC(=O)N[C@@H](CO)Cc1ccccc1)C(=O)N[C@@H](COC(=O)[C@H](CC=C)CC(=O)OC(C)(C)C)Cc1c[nH]c2ccccc12	-6	4009
CCN1/C(=C\c2ccc3ccccc3[n+]2CC)Sc2cc(C)ccc21	0	7358
C[C@@H]1O[C@@H](OC[C@H]2O[C@@H](Oc3cc(O)c4c(=O)cc(-c5ccc(O)c(O)c5)oc4c3)[C@H](O)[C@@H](O)[C@@H]2O)[C@H](O)[C@H](O)[C@H]1O	-5	3984
O=C1NC(=O)C(=Cc2ccccc2[N+](=O)[O-])C(=O)N1	-13	3873
O=C(/C=C/C(Cl)(Cl)Cl)Nc1ccc(Cl)cc1	-34	3383
S=C1NCCN1CC1CCN(CC2CCCC2)CC1	-38	3478
C=C1C(=O)c2sccc2C(c2ccc(OC)c(OC)c2)C1COC(C)=O (centres undefined)	5	3006
CCN1C[C@@H]2[C@@H]3C(=O)N(C)C(=O)[C@@H]3[C@](C)(C1=O)N2C(=O)c1ccc(Cl)cc1	-23	4350
C/C(=C\c1cc2ccccc2o1)C1Nc2cccc3cccc(c23)N1	-14	3710
C[C@@H]1CN([C@@H](C)CO)C(=O)Cc2cc(NC(=O)C3CCCCC3)ccc2O[C@H]1CN(C)S(=O)(=O)c1ccccc1	-9	3787
COc1cc(/C=N/NC(=O)CCN2CCN(c3ccccc3)CC2)cc(OC)c1OC	-13	2508
COc1ccc(S(=O)(=O)Nc2ccc3c(c2)C(=O)N([C@H](C)CO)C[C@H](C)[C@@H](CN(C)S(=O)(=O)c2ccc(F)cc2)O3)cc1	-12	3843
CC(C)=N/N=C1/NC(=O)C(c2ccc(Cl)cc2)S1 (centres undefined)	6	4098
CCN1C(=O)[C@H]2[C@@H](c3ccc(-c4cccc(Cl)c4)c(OC)c3)N3CCC[C@@]3(C(=O)OC)[C@H]2C1=O	-8	4009
NC(=O)c1ncn([C@@H]2O[C@H](CNCc3cccn3-c3ccncc3)[C@@H](O)[C@H]2O)n1	-8	2979
CCN1C[C@@H]2[C@@H]3C(=O)N(Cc4ccccc4)C(=O)[C@@H]3[C@](CC)(C1=O)N2C(=O)c1ccccc1	-65	4103
C[C@@H]1CN([C@@H](C)CO)C(=O)c2cc(NC(=O)Nc3ccc(F)cc3)ccc2O[C@@H]1CN(C)Cc1ccc(Oc2ccccc2)cc1	-9	3490
CC12CCC(=O)N1C(C(=O)Nc1nc3ccccc3s1)CS2 (centres undefined)	5	2862
c1ccc(COc2ncnc3c2ncn3CCCNCc2ccc3c(c2)OCO3)cc1	-3	3703
C[C@H](NC(=O)c1nc[nH]c1C(=O)N1CCN(c2ccccc2)CC1)c1ccccc1	-8	3518
CC(C)(C)OC(=O)C[C@@H]1C/C=C\C[C@H](CC(=O)N[C@H](CO)Cc2ccccc2)C(=O)N[C@@H](Cc2ccccc2)COC1=O	8	3756
CC(=O)NC1CC2CCCC(C1)N2C(=O)Nc1cccc(Cl)c1 (centres undefined)	-12	4116
CN1CCN(S(=O)(=O)c2ccc(Cl)c(C(F)(F)F)c2)CC1	-52	3630
CCCCCCSc1ccc([C@@H]2[C@H]3C(=O)N(C)C(=O)[C@H]3[C@]3(C(=O)OC)CCCCN23)cc1OC	-12	4558
C=CCCC1(CC)C(=O)NC(=S)NC1=O	-6	3804
COCCN(C(=O)c1cc(-c2ccco2)nc2ccccc12)c1c(N)n(Cc2ccccc2)c(=O)[nH]c1=O	16	2919
Cc1noc(C)c1NC(=O)N(C)C[C@H]1Oc2ccc(NC(=O)Nc3ccc4c(c3)OCO4)cc2C(=O)N([C@H](C)CO)C[C@@H]1C	-11	3872
COc1ccc2c(c1)OC[C@H]1[C@H]2N2C(=O)c3cc(OC)c(OC)cc3NC(=O)[C@@]2(C)[C@H]1c1ccccc1	-89	4050
C=CC(=O)Nc1cccc(N(C)c2ccnc(Nc3ccc(N4CCN(C)CC4)cc3)n2)c1	29	3164
O=C1[C@H](Cc2ccccc2)NCCCC[C@@H](c2ccco2)N1Cc1ccccc1	-19	4678
Cc1cn(CC(=O)NCCc2c[nH]c3ccccc23)c(=O)[nH]c1=O	-1	3671
C=C1C(=O)OC2C1CCC(C)C1(O)C=CC(=O)C21C (centres undefined)	-16	5522
C[C@H]1CN([C@@H](C)CO)C(=O)c2cccc(NC(=O)c3cnccn3)c2O[C@@H]1CN(C)S(=O)(=O)c1ccc(F)cc1	-11	2786
Oc1ccc(C[C@H]2CNC(=S)N2CC2CCCN2C[C@H](Cc2ccc(O)cc2)N2C[C@H](Cc3ccccc3)N(CCc3ccccc3)C2=S)cc1 (some centres undefined)	-8	3520
C[C@H](CO)N1C[C@H](C)[C@@H](CN(C)S(=O)(=O)c2cn(C)cn2)Oc2c(NC(=O)Nc3ccc(C(F)(F)F)cc3)cccc2C1=O	-7	3012
CCc1ccc(N2CC(C(=O)OCC(=O)N(CC)c3c(N)n(Cc4ccccc4)c(=O)[nH]c3=O)CC2=O)cc1 (centres undefined)	-21	3529
CC1(C)O[C@@H]2[C@H](O1)[C@@H](COS(=O)(=O)O)O[C@H]2n1cnc2c(=O)[nH]cnc21	-9	3562
CCN1C(=O)[C@H]2[C@@H](c3ccc(-c4ccc(Cl)c(Cl)c4)c(OC)c3)N3CCCC[C@@]3(C(=O)OC)[C@H]2C1=O	-11	4083
COc1ccc2c(c1)OC[C@H]1[C@H]2N2C(=O)CN(Cc3ccccc3)C(=O)[C@@]2(C)[C@H]1c1ccccc1	7	4122
COC(=O)C1=C(c2ccc(OC)c(OC)c2)C[C@@H]2CC[C@H]1N2C(=O)N1CCC(O)CC1	-10	3903
COC(=O)C1=C(c2ccc(F)cc2OCc2ccccc2)C[C@@H]2CC[C@H]1N2C(=O)NCc1ccc(Cl)cc1	-18	2963
C=C[C@H](CC(C)C)N(Cc1ccccc1)S(=O)(=O)N(Cc1ccccc1)[C@@H](C=C)CC(C)C	-24	4099
COc1ccc(C(=O)N/N=C(\C)c2ccc3c(c2)C2C=CCC2C(c2ccccc2)N3)cc1 (centres undefined)	3	6560
O=c1ccn([C@@H]2O[C@H](CNCc3ccc(-c4cc(C(F)(F)F)ccc4Cl)o3)[C@@H](O)[C@H]2O)c(=O)[nH]1	-3	3747
O=c1ccc(=O)n(CCc2ccccn2)[nH]1	-22	3822
CN(C)CCn1nnnc1SCC1=C(C(=O)O)N2C(=O)[C@@H](NC(=O)Cc3csc(N)n3)[C@H]2SC1	-10	5679
Cc1sc2ccccc2c1CNC[C@H]1O[C@@H](n2cnc(C(N)=O)n2)[C@H](O)[C@@H]1O	-29	3530
Cc1ccc(NC(=O)c2ncn(CCCNCCCN(C)C)n2)cc1C	-5	3551
COc1ccc2nc(-c3ccccc3)[nH]c(=O)c2c1	-54	3014
COC(=O)C1=C(c2ccc(S(C)(=O)=O)cc2)C[C@@H]2CC[C@H]1N2C	-19	4566
CC(=NN(Cc1ccccc1)c1ccccc1)c1ccccc1	-12	4169
COc1ccc([C@H]2CC(=O)C=C(c3cc(Cl)cc(Cl)c3)C2)cc1	-24	3534
CCOC(=O)c1c(NC(=O)COC(=O)c2ccc(NC(=O)CC#N)cc2)sc(C(=O)NC)c1C	8	3878
CC(=O)N1c2ccccc2[C@@H](C)[C@@H]1C	-30	3937

# (list continues)
SMILES	PrP 5UTR inh	Bead autofluor
COc1ccc([C@H]2CC(=O)C=C(c3cccc(OCc4ccccc4)c3)C2)cc1	0	2842
C/C(=N/NC(=O)c1ccc2c(c1)OCO2)c1ccc(NC(=O)c2ccc(F)cc2)cc1	-58	7278
O=C(Nc1ccn(CCCNCc2ccc3[nH]ccc3c2)c(=O)n1)OCc1ccccc1	-21	3573
CNC(=O)C1CC(=O)N(c2ccc(OCC(=O)Nc3ccccc3)cc2)C1 (centres undefined)	-3	3727
O=C(NC(=S)Nc1ccccc1Br)C1CCCCC1	-12	3746
O=C(Cn1cc(COc2ccc3ccc(=O)oc3c2)nn1)c1ccc(O)cc1	-12	3491
C/C(=N\NC(=O)c1cccc(S(=O)(=O)Nc2ccc(C)cc2C)c1)c1ccncc1	-12	5358
C[C@H]1COC(=O)[C@H](Cc2ccc(F)cc2)C/C=C\C[C@@H](CC(=O)N(CCO)Cc2ccccc2)C(=O)N1	-20	3945
O=C(N/N=C/c1ccc(N2CCCCC2)o1)c1ccccc1	-14	3101
COc1cccc2sc3cc(NCc4ccc(C)o4)ccc3c(=O)c12	-39	4500
Cc1cc(C)c(C)c(C(O)(C(=O)O)c2ccccc2)c1C (centres undefined)	-30	2811
CCOC(=O)c1[nH]cnc1C(=O)N[C@@H](C)c1ccccc1	-19	4164
CCCCC/C=C/C1=CC(=O)C[C@H](c2ccc(Cl)cc2)C1	-25	3642
C=C(C)[C@@H]1[C@H]2OC(=O)[C@H]1[C@]1(O)C[C@H]3O[C@]34C(=O)O[C@H]2[C@]14C	-39	5382
C#CCOCCOCCOCCNc1nc(N2CCOCC2)nc(N2CCN(C(=O)[C@H](CCCCN)n3cc(CN)nn3)CC2)n1	-33	4955
CC(C)(C)OC(=O)N[C@@H](Cc1ccccc1)C(=O)N[C@@H](CO)[C@H](O)[C@@H]1C[C@@H]1C(=O)NC1CCCCC1	28	4026
Cc1[nH]nc(-c2cccnc2)c1N=NN(C)C	-6	3925
C/C(=C\c1ccccc1F)C1Nc2cccc3cccc(c23)N1	-31	4213
CC1=C(C/C=C(\C)CCCC(C)CCCC(C)CCCC(C)C)C(=O)c2ccccc2C1=O (centres undefined)	-16	5814
COc1ccc(/[N+]([O-])=C/c2ccco2)cc1	-40	2772
CCC1CCC/C1=N\NC(=O)c1ccoc1C (centres undefined)	-34	5418
C=CCn1c(=O)/c(=C/c2ccc(O)cc2)s/c1=C(/C#N)c1nnc2n1CCCCC2	-18	9229
O=[N+]([O-])c1cc2c(c3cccnc13)COCO2	-28	3833
C#CCOCCOCCOCCNc1nc(N2CCN(C(=O)CCCCCCCCCCNC(=O)Cn3cc(C[C@@H](C)O)nn3)CC2)nc(N2CCN(C(=O)CCCCCCCCCCNC(=O)[C@@H]([C@H](C)CC)n3cc(CCCCCN)nn3)CC2)n1	3	4121

# Single records, from the list above. Order of values: PrP 5UTR inh	Bead autofluor
# C=CCn1c(=O)/c(=C/c2ccc(O)cc2)s/c1=C(/C#N)c1nnc2n1CCCCC2 as listed: -18	9229
# C=C(C)[C@@H]1[C@H]2OC(=O)[C@H]1[C@]1(O)C[C@H]3O[C@]34C(=O)O[C@H]2[C@]14C as listed: -39	5382

# Additional structures.
SMILES	PrP 5UTR inh	Bead autofluor
Cc1ccc2c(c1)[C@H]1[C@H](CO2)[C@H](c2ccccc2)[C@]2(C)C(=O)N(CC3CCCO3)CC(=O)N12 (some centres undefined)	-11	3626
COc1ccc2c(c1)[C@@H]1[C@H](CO2)[C@H](c2ccccc2)[C@]2(C)C(=O)NCC(=O)N12	-45	3770
CN(C(=O)c1ccc(NC(=O)Cc2cccc(NC(=O)C3CCN(C(=O)C4CCCCC4)CC3)c2)cc1)C1CC1	-12	2907
COc1ccc(CNC(=O)CN2C(=O)c3ccccc3S2(=O)=O)cc1	18	3823
CC[C@]12C(=O)N(C)C[C@H]([C@@H]3C(=O)N(C)C(=O)[C@@H]31)N2C(=O)c1ccccc1	-7	2933
C=CC[C@@H](Cc1ccc(F)cc1)C(=O)OC[C@H]1CCCN1C(=O)[C@H](CC=C)CC(=O)NCCO	-14	3951
CC(C)(C)OC(=O)N1CCCC(C(=O)Nc2cccc(C(=O)N3CCCCC3)c2)C1 (centres undefined)	1	3791
C=CC[C@H](CC(=O)NCCO)C(=O)NC[C@@H](OC(=O)[C@@H](CC=C)Cc1ccc(F)cc1)c1ccccc1	3	3026
COc1cccc(CN(CCC(C)C)S(=O)(=O)c2cc(Br)ccc2Br)c1	31	3342
Cc1ccc(C)c(NC(=O)CCC(=O)N/N=C/c2cccnc2)c1	-12	5349
c1ccc2c(c1)CNCc1cnnn1-2	-1	3452

# Seven entries already listed, arranged by count of non-hydrogen atoms, lowest first:
SMILES	PrP 5UTR inh	Bead autofluor
c1ccc2c(c1)CNCc1cnnn1-2	-1	3452
COc1ccc(CNC(=O)CN2C(=O)c3ccccc3S2(=O)=O)cc1	18	3823
COc1ccc2c(c1)[C@@H]1[C@H](CO2)[C@H](c2ccccc2)[C@]2(C)C(=O)NCC(=O)N12	-45	3770
Cc1ccc2c(c1)[C@H]1[C@H](CO2)[C@H](c2ccccc2)[C@]2(C)C(=O)N(CC3CCCO3)CC(=O)N12 (some centres undefined)	-11	3626
C=CC[C@@H](Cc1ccc(F)cc1)C(=O)OC[C@H]1CCCN1C(=O)[C@H](CC=C)CC(=O)NCCO	-14	3951
C=CC[C@H](CC(=O)NCCO)C(=O)NC[C@@H](OC(=O)[C@@H](CC=C)Cc1ccc(F)cc1)c1ccccc1	3	3026
CN(C(=O)c1ccc(NC(=O)Cc2cccc(NC(=O)C3CCN(C(=O)C4CCCCC4)CC3)c2)cc1)C1CC1	-12	2907

# Source: PubChem BioAssay (several laboratories)
